2A firefly: lowers the firefly signal of an FMDV 2A StopGo reporter | HEK cells with a luciferase reporter of 2A StopGo recoding | Potency, µM (top dose mostly 57.5 µM), inactives show at the highest dose signal change, negative = less light | 120,000 tested, 0.23% active; active = well fitted falling curve with a large enough effect; inconclusive = small, poorly fitted or top-dose-only effect; inactive = no such curve, though single readings can be large or run the other way; note: nearly all actives have a fitted effect of over 60% in size; overnight with compound
2A Renilla: lowers the Renilla signal of an FMDV 2A StopGo reporter; 120,000 tested, 0.32% active; AID 1745857; Potency, µM (highest dose often 57.5 µM), without a hit: at the top dose signal change, negative = less light; HEK cells with a luciferase reporter of 2A StopGo recoding; active means well fitted falling curve with a large enough effect; inconclusive means small, poorly fitted or top-dose-only effect; inactive means no such curve, though single readings can be large or run the other way; note: nearly all actives have a fitted effect of over 55% in size; overnight with compound
Starred values were filed as active, the others as inactive; u = inconclusive; [ ] = another dose, or the depositor's remark. % is set by controls: 0 for no effect and ±100 for the full control effect; potency is the fitted concentration of half-maximal effect. An excerpt. The share of hits here may be higher or lower than overall.

No.	structure	2A firefly	2A Renilla
1	Cc1ccc(F)cc1NC(=O)c1nn(C)c(=O)c2ccccc12	2%	-1%
2	CCN1CCN(CCCNC(=O)c2cnn(-c3ccc(C)cc3C)c2C2CCN(C(=O)OC(C)(C)C)CC2)CC1	-22%	-4%
3	Fc1ccc(/C=N/Nc2ccccc2)cc1F	72%[activator]	13%
4	CCOc1ccc(NC(=O)CSc2ncn[nH]2)cc1	25%	-3%
5	CC(=O)N1CCc2c(sc3nc(SCC(C)C)n(-c4ccc(F)c(Cl)c4)c(=O)c23)C1	-8%	-2%
6	CC(C)/C(=N/O)c1ccc(OCCOc2ccc(/C(=N\O)C(C)C)cc2)cc1	1%	-8%
7	COc1ccc(CN2C(=O)N3Cc4ccc(C)cc4C3CS2(=O)=O)cc1 (stereo unspecified)	24%	25%
8	N#CCc1ccc([N+](=O)[O-])cc1	23%	1%
9	COc1ccccc1CNC(=O)c1ccc(N2CCCC2)c(NC(=O)Nc2cc(F)ccc2F)c1	14%	21%
10	CC(=O)Nc1ccc(NC(=O)CC2C=CCC2)cc1 (stereo unspecified)	76%[activator]	-7%
11	CC(=O)N/C(=C\c1ccc(C)cc1)C(=O)O	4%	2%[1.06 µM]
12	O=C(O)c1ccc(CSC(F)F)cc1	12%	4%
13	Cc1ccc(C2=NS(=O)(=O)N(C)C(C(=O)N3CCN(c4ccc(F)cc4)CC3)=C2)cc1	-3%	10%
14	CC(C)c1ccc(S(=O)(=O)Nc2ccc(O)c(Sc3nc4ccccc4s3)c2)cc1	5%	122%[activator]
15	Cn1c(CCN2CCOCC2)nc2cc(NC(=O)c3ccccc3Cl)ccc21	3%	-11%
16	CCOC(=O)c1nnc2c(-c3ccc(F)cc3)c(C)nn2c1N	4%	9%
17	COc1ccc(-c2[nH]c(-c3ccc(C)cc3)nc2SCC(=O)NCC2CCCO2)cc1 (stereo unspecified)	0%	25%
18	Cc1nnc(N2CCC(C(=O)Nc3ccc(F)cc3)CC2)c2nn(-c3ccc(Cl)cc3)c(C)c12	-23%	-13%
19	CCC1CCC(N(C(=O)Cc2nc(-c3cccs3)oc2C)C2CC2)CC1 (stereo unspecified)	35µM*	-20%
20	O=S(=O)(Nc1c(F)cccc1F)c1ccc2c(c1)OCCO2	17%	45%[activator]
21	CC(OC(=O)c1cc(=O)c2ccccc2o1)C(=O)Nc1cccc(C(F)(F)F)c1 (stereo unspecified)	0%	-8%
22	COc1cccc(Oc2coc3cc(OC(=O)c4ccc5c(c4)OCO5)ccc3c2=O)c1	11%	5%
23	O=C(Nc1ccc2oc(-c3cccnc3)nc2c1)c1ccc(-c2ccccc2)o1	u	u
24	COc1cc(C(=O)/C=C/c2cccs2)ccc1OCC(=O)O	0%	-6%

Structural class, the entries above containing a COOH group (three)
No.	structure	2A firefly	2A Renilla
11	CC(=O)N/C(=C\c1ccc(C)cc1)C(=O)O	4%	2%[1.06 µM]
12	O=C(O)c1ccc(CSC(F)F)cc1	12%	4%
24	COc1cc(C(=O)/C=C/c2cccs2)ccc1OCC(=O)O	0%	-6%

Next results.
No.	structure	2A firefly	2A Renilla
25	O=C(O)c1ccccc1-n1cccc1	-9%	-1%[1.06 µM]
26	Cc1ccc(C(=O)OCC(=O)c2ccc(C3CCCCC3)cc2)c(C)c1	17%	1%
27	O=C(OCc1cc(-c2ccccc2)on1)c1cccc(C(F)(F)F)c1	24%	14%
28	COc1cc(OC)cc(-n2c(=O)c3sccc3n(Cc3c(C)cc(C)cc3C)c2=O)c1	60%[activator]	2%
29	Cc1ccc(-n2c3nc(=O)[nH]c(=O)c-3cc3c(C)nn(-c4ccccc4)c32)cc1C	-1%	-9%
30	Cn1c(=O)c2c(nc(Cl)n2CC(=O)N2CCCCC2)n(C)c1=O	9%	-3%
31	CC1CCN(C(CNC(=O)Cn2c(=O)c3c(ncn3C)n(C)c2=O)c2cccs2)CC1 (stereo unspecified)	-8%	-13%
32	CCc1ccc(CNC(=O)CSc2c3c(nc4ccc(Cl)cc24)CCCC3)cc1	-10%	-10%
33	CCCCN(CCCC)CCC(O)c1cc2c(Cl)cc(Cl)cc2c2cc(C(F)(F)F)ccc12 (stereo unspecified)	24%[11.5 µM]	-2%
34	Cc1ccc(Nc2c(-c3ccc(N4CCOCC4)cc3)nc3ncccn23)cc1C	0%	0%
35	Cc1cccc(-c2nnc(SCC(=O)NC(=O)NC3CCCC3)n2Cc2ccco2)c1	-3%	52%[activator]
36	COc1ccc(/C=C(/C#N)C(=O)Nc2ccc(C34CC5CC(CC(c6ccccc6)(C5)C3)C4)cc2)cc1	10%	-6%
37	Cc1nc2ccc(C(=O)NCCCOC(C)C)cc2nc1C	0%	2%
38	CCOC(=O)c1c(NC(C)=O)c2c3c(sc2n1Cc1nc(-c2cccc(Cl)c2)oc1C)CCCC3	0%	-9%
39	Cc1c(CC(=O)NCCCN2CCOCC2)c(=O)oc2c(C)c(O)ccc12	45%[activator]	40%[activator]
40	O=C(NC1CCS(=O)(=O)C1)c1cc2sccc2n1Cc1ccccc1 (stereo unspecified)	-10%	-9%
41	COC(=O)CC1c2cc(OC)c(OC)cc2CCN1Cc1nc(CC(C)C)no1 (stereo unspecified)	-6%	-19%
42	COc1ccc(CCNC(=S)NNC(=S)NCC2CCCO2)cc1OC (stereo unspecified)	-2%	34%[activator]
43	COc1ccc(NC(=O)CSc2nc(-c3cccs3)cc(C(F)(F)F)c2C#N)cc1	5%	-2%
44	Brc1cccc(CSc2nnc(-c3ccncc3)o2)c1	23%	6%
45	COc1ccc(C(=O)NCCn2cc(SCC(=O)Nc3ccc4c(c3)OCCO4)c3ccccc32)cc1	-2%	53%[activator]
46	OC(CNCc1c(OCc2ccccc2)ccc2ccccc12)c1ccccc1 (stereo unspecified)	u	u
47	COc1ccc(OC)c(CCNc2nccn(-c3ccc(C)c(C)c3)c2=O)c1	0%	13%
48	Cc1cc(=O)n(CC(=O)NC(C)c2ccccc2)c2c1c(C)nn2-c1cccc(F)c1 (stereo unspecified)	-18%	-22%
49	COc1ccc(-n2c(SCC(=O)NCc3ccc(F)cc3)nc3c([nH]c4ccccc43)c2=O)cc1	0%	10%
50	O=C(NCCc1ccc(Cl)cc1)c1cccc(Nc2ncc(-c3ccc(F)cc3)cn2)c1	37%[activator]	-3%
51	Cc1oc(-c2nc(C#N)c(N(C)CCC#N)o2)cc1S(=O)(=O)N(C)C	0%	1%
52	O=C(CSc1ccccc1F)c1ccc2c(c1)-c1ccccc1C2	100%[activator]	30%
53	COC(=O)c1ccccc1NC(=O)c1ccc2nc(CCc3ccccc3)oc2c1	-3%	-13%
54	Cc1ccc(/C=C/C(=O)N(Cc2ccco2)Cc2ccco2)s1	33%[activator]	67%[activator]
55	CCOC(=O)c1cnc2c(Cl)cccc2c1Nc1ccc(C(=O)OC)cc1	3%	-6%
56	O=C(COc1ccc(Br)cc1)Nc1nc(-c2ccc(Br)o2)ns1	0%	-6%
57	CC(=O)c1ccc(NC(=O)CSc2ccc3nnc(CCNS(=O)(=O)c4ccc(C)cc4)n3n2)cc1	-18%	8%
58	O=C1CC(c2ccccc2F)c2c(n3c(nc4ccccc43)[nH]c2=O)N1 (stereo unspecified)	4%	-8%
59	COc1cc(/C=C(/C#N)c2ccccc2F)cc(I)c1OC	26%	16%
60	Cc1ccc(-c2cnc(CCC(=O)NCc3ccccc3F)o2)cc1C	18%	44%[activator]
61	CC(=O)/C(C=Nc1cc(C(F)(F)F)ccc1Cl)=C(/C)O	5%	-1%
62	CCCn1c(N)c(C(=O)CSc2ccc3ccccc3n2)c(=O)[nH]c1=O	-2%	u
63	CC(C)C1C(C#N)=C(N)OC2=C1C(=O)CC(C)(C)C2 (stereo unspecified)	1%	1%
64	Cc1ccc2nc(Cl)c3cc(C(=O)NC4CCCC(C)C4C)sc3c2c1 (stereo unspecified)	0%	11%
65	CN=C(NC)c1ccc([N+](=O)[O-])cc1	-7%	-8%
66	N#C/C(=C\c1ccccc1)c1nc2ccccc2[nH]1	39%[activator]	126%[activator]
67	CCOc1ccc(C(=O)OCc2ncc(-c3ccccc3)o2)cc1	2%	-7%
68	COc1ccc(Cl)cc1NC(=O)c1cc2c(=O)n3ccccc3nc2s1	0%	-11%
69	O=C(c1cccc(Br)c1)N1CCC(CCc2ccc(O)cc2)CC1	-5%	89%[activator]
70	Cc1ccc(-n2nnc(C(=O)NCC(C)C)c2C)cc1Cl	78%[activator]	-5%
71	CCOc1ccccc1Oc1c(C)oc2cc(OCC(=O)O)ccc2c1=O	-8%	1%
72	Cc1cccc[n+]1C/C=C\c1ccccc1	3%	-2%
73	c1ccc(CNCCCN2CCCCC2)cc1	-5%	-1%
74	O=C(Cn1ncc2c1-c1ccccc1OC2)N1CCN(c2cccc(Cl)c2)CC1	0%	0%
75	CC(=O)Nc1cc(-c2ccccc2)nn1Cc1cccc(Cl)c1	-15%	68%[activator]
76	Cc1oc2cc(OCC(=O)N[C@@H](CC(C)C)C(=O)O)ccc2c(=O)c1-c1ccc(Cl)cc1	28%	10%
77	C=CCN1CCN(c2ccc(C(F)(F)F)cn2)CC1	19%	7%
78	CCCC(=O)N(C)CCCc1ccccc1	78%[activator]	40%[activator]
79	Cn1c(C(=O)N2CCN(C(=O)C3CCCCC3)CC2)cc2ccccc21	-4%	-4%
80	Cc1ccc(/C=C2\Oc3cc(OS(C)(=O)=O)ccc3C2=O)cc1	23%	7%
81	CN1CCN(CCCN2C(=O)CSC2c2ccc(Cl)cc2)CC1 (stereo unspecified)	-5%	-6%
82	CN(C)c1ccc(N=Cc2c(O)ccc3ccccc23)cc1	63%[activator]	-7%
83	CCCCOC(=O)c1ccc(Nc2nc3ccc(C)cc3n3cnnc23)cc1	15%	-7%
84	CC(=O)c1ccc(S(=O)(=O)Nc2cccc(-c3ccc(N4CCCCCC4)nn3)c2)cc1	114%[activator]	140%[activator]

(more compounds)
No.	structure	2A firefly	2A Renilla
85	Cc1cc(C(C)(C)C)cc(C)c1COC(=O)c1nn(C)c(=O)c2ccccc12	u	u
86	Cc1ccc2oc(=O)c3cnn(CC(=O)Nc4ccc(Br)cc4C)c3c2c1	-12%	-13%
87	CC1CCN(C(=O)CN2CCSc3ccccc32)CC1	7%	11%
88	Fc1ccc(C2=NN(c3cccc(C(F)(F)F)c3)C(c3ccc(F)cc3)C2)cc1 (stereo unspecified)	15%	11%
89	CCCN(CCOC)Cc1ccc(C#N)cc1	-13%	-9%
90	O=C(CCc1ncc(-c2ccc(Cl)cc2)o1)Nc1ccc(F)cc1F	0%	-11%
91	CC(NC(=O)CSc1ccc(C(F)(F)F)cn1)c1ccccc1 (stereo unspecified)	11%	-3%[1.06 µM]
92	CC(NC(=O)C1CCCC1)c1ccc(Cl)cc1Cl (stereo unspecified)	17%	14%
93	Cc1ccc2oc(C(=O)Nc3ccc(S(=O)(=O)Nc4cc(C)nc(C)n4)cc3)cc(=O)c2c1	22%	42%[activator]
94	COc1ccc(C(=O)NCc2ccc3c(c2)CCN3C(=O)c2ccncc2)cc1	-20%	22%
95	Cc1ccccc1CN1C(=O)C(O)(CC(=O)c2cccc(Br)c2)c2ccccc21 (stereo unspecified)	-20%	1%
96	Cc1cc2nn(-c3ccccc3)nc2cc1NC(=O)COc1ccc(Cl)cc1	57%[activator]	7%
97	CCc1ccc(C(=O)NC(Cc2ccccc2)C(=O)O)cc1 (stereo unspecified)	18%	5%
98	Cc1ccsc1CN1CCc2nc(Nc3ccccc3)ncc2C1	112%[activator]	1%
99	Cc1ccc(NC(=O)CN(C)S(=O)(=O)c2cccc3cccnc23)cc1F	7%	65%[activator]
100	Cc1ccc2c(c1)N(CCC(=O)NCc1ccc(F)cc1)C(=O)CO2	-6%	8%
101	COc1cccc(CNC(=O)CCC(=O)N2Cc3cccc(OC)c3Oc3ncccc32)c1OC	-6%	-7%
102	Cc1ccc2nc(COc3cccc(NC(=O)c4ccccc4Cl)c3)cc(=O)n2c1	-18%	-13%
103	O=C(NCc1coc(-c2cccs2)n1)c1cc(F)cc(F)c1	32%[activator]	42%[activator]
104	COc1cc(CC(=O)OCc2ccc(Cl)cc2Cl)cc(OC)c1OC	10%	1%
105	O=C(CSc1nc2ccccc2o1)Nc1ccc(F)cc1	106%[activator]	3%
106	Ic1cccc(-c2nc(-c3ccccc3)no2)c1	200%[activator]	18%
107	COCCn1ccc2c(OCC(=O)Nc3ccccc3F)cccc2c1=O	102%[activator]	14%
108	Cc1c(C(=O)O)oc2c1-c1nn(Cc3ccc(Cl)cc3)cc1CC2	0%	-14%
109	Cc1nc2ccccc2c(=O)n1-c1ccc(NC(=O)C(F)(F)F)cc1	7%	-6%
110	COc1ccc(C=O)cc1COC(=O)COc1ccc(Cl)cc1Cl	5%	-4%
111	Cc1ccccc1C(=O)Nc1ccc2nc(SCCOc3ccccc3)sc2c1	-5%	13%
112	CCc1cnc2c(c1SCCC(C)C)c(=O)n(C)c(=O)n2C	3%	-8%
113	CCOC(=O)c1cc(-c2ccc(C)cc2)nn1Cc1ccccc1	328%[activator]	20%
114	Cc1nc2cc(NC(=O)C(C)Oc3ccc(Cl)cc3Cl)ccc2o1 (stereo unspecified)	24%	11%
115	COc1cc(/C=C/C(=O)c2ccc(O)cc2)cc(Cl)c1O	31%[activator]	u

3 structures already listed, ordered by number of heavy atoms, lowest first:
No.	structure	2A firefly	2A Renilla
115	COc1cc(/C=C/C(=O)c2ccc(O)cc2)cc(Cl)c1O	31%[activator]	u
114	Cc1nc2cc(NC(=O)C(C)Oc3ccc(Cl)cc3Cl)ccc2o1 (stereo unspecified)	24%	11%
109	Cc1nc2ccccc2c(=O)n1-c1ccc(NC(=O)C(F)(F)F)cc1	7%	-6%

From PubChem
